# From PubChem BioAssay
# Ba CapD inh – blocks the Bacillus anthracis CapD enzyme | purified CapD enzyme, fluorescence intensity read-out; active compounds read low; some hits fall short of the stated cut | z-score (no concentration beside the values) | 140,000 tested, 0.23% active;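 active = z-score under -4 in either of two replicates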;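 also: stock transfer was 100 nL into about 40 µL; score is relative to mean and spread of the plate; one replicate is shown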
# AID504770 – E. coli YBA685 growth inhibition, screen for V. cholerae RctB inhibitors; E. coli YBA685 rctB-dependent plasmid, OD600 growth, 3 h; active compounds read low; z-score (test concentration not listed); 130,000 tested, 0.27% active; AID 504770;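 active = z-score under -2 on both plates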;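 also: wells of about 30 µL received 100 nL stock; score is relative to mean and SD of the test wells; the first replicate is given; strong numbers were not always called active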
# Numbers without * were called inactive; · = not tested or not shown.
smiles,Ba CapD inh,AID504770
CCc1ccc(NS(=O)(=O)c2ccc3nc(-c4ccccc4)[nH]c3c2)cc1,0.345,2
CCC1CCCCN1S(=O)(=O)c1ccc(NC(=O)c2ccncc2)cc1 (centres undefined),-0.41,-0.7
CC1=NN(c2cccc(C(=O)O)c2)C(=O)/C1=C\c1ccc(-c2cc([N+](=O)[O-])ccc2O)o1,-1.08,·
Cc1ccc(C(=O)Nc2ccc(Oc3ccccc3)cc2)cc1I,0.685,-0.2
N#CC(C#N)C(CC(=O)c1ccc(Cl)cc1)c1cccs1 (centres undefined),-0.43,1.3
C=C(C)C(C)(O)C#CCN1CCCC1 (centres undefined),·,0.6
O=C(NCC(F)(F)F)c1ccc(N2CCCC2=O)cc1,·,-0.5
CS(=O)(=O)c1ccc2nc(NC(=O)c3ccc4nc[nH]c4c3)sc2c1,·,0.15
O=C(Cc1ccc(F)cc1)Nc1ccc(CN2CCCC2)cc1,0.265,-0.25
CCOc1ccc(Oc2c(/C=N/NC(N)=O)c(C)nn2-c2ccccc2)cc1,·,-1.35
Cc1nc2sccn2c(=O)c1S(=O)(=O)N1CC(=O)N(CCc2ccccc2)C(=O)C1,51.1,-0.4
O=C(C1CCCCC1)N1CCN=C1SCc1cccnc1,·,-0.75
COc1ccc(-c2noc(-c3cc4ccccc4o/c3=N\NS(=O)(=O)c3ccc(OC)c(OC)c3)n2)cc1,1.34,0.3
COC(=O)Cn1c(=NC(=O)CSCC(=O)Nc2nccs2)sc2cc(OC)ccc21,·,-1.1
O=C(NC1CCCC(C(F)(F)F)C1)c1ccncc1 (centres undefined),0.05,2.3
O=C1CC(N2CCOCC2)C(=O)N1 (centres undefined),·,2.15
COc1ccc(Cn2nnnc2C(C(C)C)N2CCc3ccccc32)cc1 (centres undefined),·,0.85
O=C(O)c1ccc(CSc2nnc(-c3ccccc3)o2)cc1,·,0.85
CC(C)(C)C(=O)Nc1ncccc1C(=O)O,0.17,-0.45
O=C(Nc1cc(C(=O)N2CC=C(c3ccccc3)CC2)ccc1N1CC2CC(C1)c1cccc(=O)n1C2)c1ccc(F)cc1 (centres undefined),-0.28,·
COc1ccccc1S(=O)Cc1ccc(C(=O)O)o1 (centres undefined),3.25,-0.5
CC(=O)C1=NN(c2cccc(Cl)c2C)C2(S1)c1ccccc1C(c1cc(C)ccc1C)=NN2c1ccccc1 (centres undefined),27.9,·
Cc1cccc(C)c1NC1OC(=O)c2ccccc21 (centres undefined),8.54,-0.7
CC(OC(=O)c1cc2sccc2n1C)C(=O)NCc1cccs1 (centres undefined),·,1.4
COc1ccccc1-c1nc(COc2ccc(Cl)cc2Cl)no1,0.46,-0.35

# Continued; the last six above are carried over.
smiles,Ba CapD inh,AID504770
O=C(Nc1cc(C(=O)N2CC=C(c3ccccc3)CC2)ccc1N1CC2CC(C1)c1cccc(=O)n1C2)c1ccc(F)cc1 (centres undefined),-0.28,·
COc1ccccc1S(=O)Cc1ccc(C(=O)O)o1 (centres undefined),3.25,-0.5
CC(=O)C1=NN(c2cccc(Cl)c2C)C2(S1)c1ccccc1C(c1cc(C)ccc1C)=NN2c1ccccc1 (centres undefined),27.9,·
Cc1cccc(C)c1NC1OC(=O)c2ccccc21 (centres undefined),8.54,-0.7
CC(OC(=O)c1cc2sccc2n1C)C(=O)NCc1cccs1 (centres undefined),·,1.4
COc1ccccc1-c1nc(COc2ccc(Cl)cc2Cl)no1,0.46,-0.35
Cc1[nH]c(-c2ccc(F)cc2)cc1C(=O)NCc1ccccn1,-0.795,0.9
COc1ccc(S(=O)(=O)c2cc3cc(Br)ccc3oc2=O)cc1OC,1.18,0
O=c1[nH]c2cc(Cl)c(Cl)cc2nc1-c1ncc(C(F)(F)F)cc1Cl,1.32,·
COc1ccc(N=C2SCC(c3ccc(C)cc3)=NN2CCO)cc1,-2.87,0.25
CS(=O)(=O)N(CCc1ccccc1)CC(=O)N1CCc2ccccc2C1,·,1.2
CC(C)Oc1ccccc1C(O)c1nnc(-c2ccccc2)o1 (centres undefined),·,0.05
Cc1ccc2[nH]c(=O)c(-c3noc(C(C)(C)C)n3)cc2c1,0.365,-0.05
N/C(=N\O)c1ccc(OCc2ccccc2)cc1,-0.065,·
Cc1noc(C)c1CSCC(=O)OCn1nnc2ccccc2c1=O,·,1.6
O=C(CCCC1=NS(=O)(=O)c2ccccc2N1)N1CCCCCC1,0.27,-1.1
Cn1cc(SCC(=O)N2N=C(c3cccs3)CC2c2ccc(F)cc2)c2ccccc21 (centres undefined),-0.315,·
O=C(Nc1ccc(OC(F)(F)F)cc1)OC(Cc1ccccc1)C(F)(F)F (centres undefined),-0.41,·
COC(=O)C1=C(N)n2c(s/c(=C\c3ccccc3)c2=O)=C(C#N)C1c1ccccc1 (centres undefined),-0.405,·
O=C(CN1CCCCCC1)N1c2ccccc2C=Cc2ccccc21,-0.1,·
Cc1cc(C)nc(NS(=O)(=O)c2ccc(NC(=O)c3cc(Cl)sc3Cl)cc2)n1,1.1,·
Cc1c(C=Nc2cccc3nsnc23)c(=O)n2c([nH]c3ccccc32)c1C#N,2.08,0.5
Cc1nn(C)c(Oc2ccc(Cl)cc2)c1C(=O)Nc1ccc(F)cc1,-0.75,·
O=C(Oc1ccc(-c2ccccc2)nn1)c1cccs1,-0.835,-0.6
CC(C)COc1ccc(C2Nc3ccccc3C(=O)N2c2ccc3ccccc3c2)cc1 (centres undefined),1.74,·
CCC(Sc1nc(C)cc(C)n1)C(=O)Nc1sc2c(c1C#N)CCCC2 (centres undefined),-0.385,-0.55
CC(C)Cn1c(SCC(=O)Nc2ccc(F)cc2F)nc2ccccc2c1=O,0.395,-0.25
Nc1nc(CSc2nnc(-c3cccc(F)c3)n2-c2ccccc2)nc(N2CCOCC2)n1,-0.575,1.25
COc1cccc(C(O)C(F)(F)F)c1 (centres undefined),·,0.8
CCCNC(=O)Nc1ccc2c(c1)CCC2,-0.92,-0.85
Cc1nc2ccc(Br)cc2c(=O)n1-c1ccccc1N1CCOCC1,0.325,0.15

# Quoted from the listing:
# CCCNC(=O)Nc1ccc2c(c1)CCC2 in AID504770: -0.85
# Cc1nc2sccn2c(=O)c1S(=O)(=O)N1CC(=O)N(CCc2ccccc2)C(=O)C1 in AID504770: -0.4

# Remaining list, next part
smiles,Ba CapD inh,AID504770
COC(=O)c1sc(NC(=O)CSc2nc(C)nc3sc4c(c23)CCC4)c(C(=O)OC)c1C,0.105,·
COc1cc(OC)nc(CSc2ncc(C(=O)N3CCN(c4nc(C)cc(C)n4)CC3)n2C)n1,-0.56,·
COC(=O)c1ccc(NC(=O)C2CCCN2C(=O)OCc2ccccc2)cc1 (centres undefined),-1.8,0.35
CC(Sc1nc(C2CC2)n(-c2ccccc2)n1)C(=O)NC(C)(C#N)C(C)C (centres undefined),·,0.1
CCOC(=O)Cn1c(=O)oc2cc(S(=O)(=O)NCc3ccccc3OC)ccc21,-1.34,-0.4
CN(Cc1ccccc1)Cn1[nH]c(=O)ccc1=O,·,0.6
CCN(c1ccc(OC(F)(F)F)cc1)c1nc(C)cc(C)n1,-0.38,·
O=C(O)c1nccnc1C(=O)NC1CCN(Cc2c(F)cccc2Cl)CC1,-0.615,1.85
Cc1ccc(CNC(=O)CCCn2nc(-n3cccc3)c3c(C)cc(C)nc32)cc1,31.1,0.5
O=C(NCCN1CCN(C(=O)NC2CCCCC2)CC1)NC1CCCCC1,-0.025,-0.25
FC(F)(F)Oc1ccccc1NC(=S)NCc1ccc2c(c1)CCO2,9.58,1.5
Cc1onc(-c2c(F)cccc2Cl)c1C(=O)c1ccc(F)cc1,-0.465,·
CCC(NCc1c(O)ccc2c3c(c(=O)oc12)CCC3)C(=O)O (centres undefined),69.7,-0.45
Cc1ccccc1OCC(=O)OCC(=O)N1c2ccccc2CC1C (centres undefined),-0.99,1.65
CN(C)c1nc2cc(Cl)ccc2o1,0.01,-0.5
CCCN1CCC(Nc2ccc3[nH]c(C(C)(C)C)cc3c2)CC1,1.5,·
CCc1c(C(=O)N2CCN(Cc3cccc(OC)c3)CC2)csc1C,0.05,-0.9
O=c1oc2c3c(ccc2c2c1CCC2)OCN(CCc1ccccc1)C3,96.9,-0.95
O=C(CC(c1ccccc1)c1ccccc1)Nc1nnc(-c2ccccc2)o1,·,-0.1
CC(C)CCn1c(=O)c2ccccc2n2c(CN3CCCC3)nnc12,·,-0.05
O=C(Nc1ccc(Cl)c(Cl)c1)c1csc(Cc2ccccc2)n1,0.475,·
Cc1c(C)c(C)c(C(=O)c2ccccc2C(=O)NN)c(C)c1C,-0.36,-0.15
CCOc1ccc(-n2c(=S)sc3c2nc(SCC#N)n2c4ccccc4nc32)cc1,12.8,·
COCC(=O)OCC1CCCN2CCCCC12 (centres undefined),0.42,1.15
O=C(COC(=O)C12CCC(=O)N1c1ccccc1S2)c1ccc2c(c1)OCO2 (centres undefined),·,2
O=C1NC(=O)C2C1Sc1[nH]c(=O)sc1C2c1c[nH]c2ccccc12 (centres undefined),·,0.1
CCC(=O)c1cc(Cl)ccc1O,·,-0.2
COc1cc(N(C(=O)c2cnccn2)C(C(=O)NCc2ccccc2)c2cccs2)ccc1-n1cnnn1 (centres undefined),·,-0.55
O=C(O)C1=CN(C2CCCCC2)c2ccccc2C1,0.64,·
CCC(=O)Nc1ccc2c(c1)oc1ccccc12,0.31,-0.85
O=C1CSc2nnc(Cn3nnc4ccccc43)n2N1,-0.4,0.5
COc1ccc(N(C(C)=O)c2nc3ccccc3[nH]2)cc1,-0.095,-1.05
CS(=O)(=O)c1ccc(N(Cc2ccccn2)C(=O)c2cc(Cl)nc(Cl)c2)cc1,-0.76,·
O=C(CCc1nc(-c2ccccn2)no1)NCc1ccc(F)cc1,1.05,-1.1
CN(n1cnc2ccsc2c1=O)S(=O)(=O)c1ccc(Cl)cc1,-0.075,-0.1
N#Cc1c(C(F)(F)F)cc(=O)[nH]c1S,·,-0.6
CCOc1cccc2c1N(C(C)=O)C(C)(C)C1=C2C2(SC(C(=O)OC)=C(C(=O)OC)S2)C(C(=O)OC)=C(C(=O)OC)S1,-0.175,·
Cn1nc(C(=O)OCC(=O)NCc2ccc(Cl)cc2)c2ccccc2c1=O,·,0.7
CCC(C)N1C(=O)CCC1C(=O)N1CCN(c2ccc(F)cc2)CC1 (centres undefined),-1.45,-0.55
N#Cc1cn(CC(=O)Nc2ccccc2C(F)(F)F)c2ccccc12,·,-0.15
CC1CCc2cc(F)ccc2N1C(=O)Nc1ccc(F)cc1 (centres undefined),0.475,0.15
CN(C)C(=O)COC(=O)c1cc(Cl)cc(Cl)c1N,90.9,-0.95
Cc1ccc(S(=O)(=O)Nc2ccc(C)cc2NS(=O)(=O)c2ccc(C)cc2)cc1,0.135,·
COc1ccc(CCNC(=O)CCn2c(SCC(=O)NCCc3ccccc3)nc3ccccc3c2=O)cc1OC,0.145,·
COc1ccc(N2CCN(c3ncnc4c3cnn4-c3ccccc3)CC2)cc1,-0.295,·
O=C(Oc1ccc(-c2nnco2)cc1)c1cccc(S(=O)(=O)N2CCc3ccccc32)c1,·,0.15
NC(=O)NCC(=O)N1CCN(C(=O)c2ccccc2)CC1,·,-1
CCSC1=NCCN1S(C)(=O)=O,-0.22,0.5
CC1(C)Cc2nc(N)c(C(=O)O)cc2CO1,17.6,·
O=C(NCCc1nnc2ccc(NCCO)nn12)c1ccccc1,·,-0.9

# Next section
smiles,Ba CapD inh,AID504770
O=C(CC(c1cccs1)N1Cc2ccccc2C1=O)N1CCC2(CC1)OCCO2 (centres undefined),0.245,0.55
CN(C)S(=O)(=O)c1ccc(C(=O)OCC(=O)c2cc3ccccc3o2)cc1,·,0.05
O=C(CSc1ccccc1)OCC(=O)c1cc2ccccc2o1,·,0.3
O=C(O)c1ccc(N/C=C/C(=O)c2ccco2)cc1,0.025,1.2
Cc1cc2nc(N3CCc4ccccc43)c3ccccc3n2n1,·,0.8
CCOC(=O)C1=C(CSc2nnc(-c3ccccc3)n2CC)NC(=O)NC1c1cccs1 (centres undefined),·,-0.4
Cc1cc(C)c(C)c(S(=O)(=O)Nc2ccccc2C(=O)NCCCN2CCOCC2)c1C,·,0
CC(=O)Oc1cccc2c1OC(C)(C)C2,-0.3,1.6
N#CC(C#N)=C1C(=O)c2ccccc2C1=O,0.265,-0.7
C/C(=N\N=C(/C)c1ccc(C)cc1)c1ccc(C)cc1,-0.37,·
Cc1c2c(nc3c(C(=O)NC4CCCCC4C)cnn13)CCCC2 (centres undefined),9.5,0.65
CCC(=O)N(CCc1ccccc1)C1CC(=O)N(c2ccccc2)C1=O (centres undefined),0.235,-0.8
O=C(Oc1ccc(Cl)cc1Cl)c1csc(-c2ccc3nonc3c2)n1,0.925,0.9
CCC1CCCCN1C(=O)CSc1nnc(-c2ccc(Cl)cc2)o1 (centres undefined),-4.75*,0.05
CCC1CCCCN1C(=O)c1ccc(C(C)(C)C)cc1 (centres undefined),-0.155,-0.4
Cc1cccc(C(=O)OCC(=O)NC23CC4CC(CC(C4)C2)C3)c1O,·,0.5
CC1CCN(C(=O)c2ccc(N3C(=O)c4ccccc4C3=O)cc2)CC1,·,-0.7
O=C(O)COc1ccc2nncn2n1,·,0.2
O=C(CSc1nc2sc3c(c2c(=O)n1Cc1ccco1)CCCC3)NC(=O)NC1CC1,·,1.6
COc1ccc(-n2ccnc2SCC(=O)N2CCCC2c2cccs2)cc1 (centres undefined),·,-0.15
Cn1cc(-c2nnc(-c3ccccc3)o2)c2ccccc21,·,-0.15
CC1(C)C2CCC1(C)C(NS(=O)(=O)c1cccc(F)c1)C2 (centres undefined),-0.515,·

# No enrichment for hits, and some 0.41% of all compounds hit somewhere here.
